# Compound activity deposited in PubChem by ICCB-Longwood Screening Facility, Harvard Medical School.
# Sa growth 42C = inhibitors of Staphylococcus aureus growth at 42 °C; S. aureus RN4220 growth, OD600, 20 h; stronger effect = lower value; relative growth, % (test concentration not listed); 0.53% of 170,000 active; AID 720641;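 active = growth at 42 °C up to 50% and 20 or more points under that at 30 °C, or under 10% at both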;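 note: 300 nL library stock went into each well; scaled to the means of positive and negative controls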
# GIV Gai3 FP = inhibitors of GIV GBA-motif binding to rat Galpha-i3 | P08753 | 0.42% of 210,000 active | AID 1224905 | Galpha-i3/FITC-GIV peptide fluorescence polarization, 90 min; stronger effect = lower value; scaled: aluminum fluoride 0%, vehicle 100% | percent of control (FP), % (test concentration not listed);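 active = replicate mean at 85% of control or lower, very high polarization wells dropped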;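 note: wells of about 15 µL received 100 nL stock; the first replicate is given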
# Target sequence (P08753 whole entry, looked up): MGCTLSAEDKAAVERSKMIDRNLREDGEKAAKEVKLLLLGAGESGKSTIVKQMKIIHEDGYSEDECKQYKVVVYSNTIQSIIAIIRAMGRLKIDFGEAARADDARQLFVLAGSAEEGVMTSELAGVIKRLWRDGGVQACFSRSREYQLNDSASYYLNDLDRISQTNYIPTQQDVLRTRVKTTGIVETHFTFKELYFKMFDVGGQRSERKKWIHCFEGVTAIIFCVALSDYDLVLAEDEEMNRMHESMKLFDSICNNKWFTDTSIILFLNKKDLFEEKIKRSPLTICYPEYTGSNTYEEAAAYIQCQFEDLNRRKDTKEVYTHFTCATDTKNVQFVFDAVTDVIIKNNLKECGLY
# HCMV NEC inh = cytomegalovirus nuclear egress complex inhibition | HTRF UL50-UL53 interaction, normalized percent inhibition | inhibition, % (concentration not given with the values) | 0.15% of 190,000 active | AID 1918969;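 active = both replicates at 50% or more, plus weaker picks with an unusually low signal ratio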;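 note: stock transfer was 100 nL into about 20 µL; 0% = negative control wells and 100% = wells with untagged competitor protein; inactives centre near -12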
# Sa growth 42C second temp = also measured in Sa growth 42C; calls as there; relative growth, %; measured here: growth at 30 °C;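 optical density after 20 h as mean of two plates; 100% = untreated growth and lower means inhibition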
# The depositor's hits bear a star; nt = no result given; & = joins results of further samples. Not a hit list. About 0.83% of those tested had a hit in this group.
SMILES,Sa growth 42C,Sa growth 42C second temp,GIV Gai3 FP,HCMV NEC inh
CC1=CC(C)C(C[N+]2(C)CCCCC2)C(C)C1 (stereo unspecified),84.6,94.9,nt,3.2
CCSc1ncc(Cl)c(C(=O)Nc2ccc(S(=O)(=O)N3CC(C)OC(C)C3)cc2)n1 (stereo unspecified),93.3,80.2,101.1,nt
CCc1nc(SCC(=O)C(C)(C)C)c(C#N)cc1C,86.5,87.3,nt,-13.2
CC(C)CCNC(=O)C12CC3CC(CC(O)(C3)C1)C2,96.6,105.9,nt,3.7
COC(=O)c1cnn2c3c(c(C)nc12)CCCC3,82.0,86.8,102.2,nt
CN(C)S(=O)(=O)c1cccc(-c2nnc3n2N=C(c2cccs2)CS3)c1,94.7,95.5,nt,-36.6
O=C(NCc1cccnc1)c1c(O)c2cccc3c2n(c1=O)CC3,93.2,81.0,102.0,-28.2
COc1ccccc1/C=C/C(=O)Nc1sc2c(c1C(N)=O)CCC2,88.0,80.3,nt,-16.4
Cc1nn(-c2ccccc2)c2c1N(CC(=O)NC1CCN(Cc3ccccc3)CC1)C(=O)CS2,nt,nt,105.7,-18.1
COc1cccc(C(=O)Nc2ccc3oc(-c4ccc5ccccc5c4)nc3c2)c1,103.4,87.7,104.6,-37.4
COC(OC)c1cc(=O)[nH]c(SC)n1,100.7,89.8,101.2,0.8
COc1cc(OC)c(OC)cc1CN1CCC(N2CCN(c3ccccc3OC)CC2)CC1,77.7,82.7,105.3,-34.0
Cc1ccc(-c2noc(-c3ccc(N4CCN(C)CC4)c([N+](=O)[O-])c3)n2)cc1,97.1,93.0,102.1,-16.5
Cc1ccc(/C(O)=C2/C(=O)C(=O)N(CCN(C)C)C23C(=O)N(C)c2ccccc23)cc1 (stereo unspecified),109.2,88.4,102.5,nt
Cc1cccc(-c2noc(-c3ccc(NC(=O)C4CC(=O)N(c5ccccc5C)C4)cc3)n2)c1 (stereo unspecified),nt,nt,107.9,-23.3
CN(C(=O)COCc1cc(-c2ccco2)on1)C1CCCCC1,94.6,76.0,111.5,-35.4
CCN(C(=O)c1cc2c(=O)oc3ccccc3c2s1)c1ccccc1,123.7,87.2,100.6,nt
O=C(CSc1nc(Nc2ccccc2)c2ccccc2n1)c1ccc(Cl)cc1,109.4,88.2,103.6,nt
COc1cc(OC)cc(-c2nc3nc(C)c(CCC(=O)Nc4ccc(C)cc4)c(C)n3n2)c1,101.9,95.6,105.1,10.6
COCCNC(=O)c1cccc(N2CCCS2(=O)=O)c1,nt,nt,103.5,-28.1
COc1cccc(C2C(C#N)=C(N)Oc3n[nH]c(C(C)(C)C)c32)c1 (stereo unspecified),105.8,84.2,100.9,-18.7
Cc1ccc2c(c1)N(C(=O)Nc1ccccc1C)CC(C)O2 (stereo unspecified),95.2,88.6,103.1,-22.5
O=C1c2cccc(O)c2C(=O)c2c(O)cccc21,45.5,14.5,nt,-62.7
Cc1ccccc1C(=O)Nc1ccc2c(c1)nc1n2CCN(Cc2ccccc2)C1,nt,nt,99.1,-9.8
Cc1ccc(NC(=O)CNC(=O)Cn2cnc3ccccc3c2=O)cc1F,116.4,98.6,101.5,2.4

# (next part)
SMILES,Sa growth 42C,Sa growth 42C second temp,GIV Gai3 FP,HCMV NEC inh
Cc1nn(CC(=O)N(C)Cc2ccccc2)c(=O)c2nn(-c3ccccc3)c(C)c12,91.0,90.9,103.7,-28.5
COc1cccc(-n2c(/C=C3\C(=O)N(C(C)C)c4ccccc43)nc3ccccc3c2=O)c1,nt,nt,109.5,-20.8
CCOC(=O)c1sc2ncn(CC(=O)OC)c(=O)c2c1C,103.3,82.7,nt,-19.7
CCOC(=O)N1CCN(C(=O)c2ccc(CS(=O)(=O)c3c(Cl)cccc3Cl)o2)CC1,118.3,94.0,98.5,1.7
CCOC(=O)c1ccc(NC(=O)NC2CC3CCC(C2)N3Cc2nnnn2Cc2ccco2)cc1 (stereo unspecified),81.9,70.2,100.9,-7.4
CCOC(=O)C1CCN(C(=O)c2cc3ccccc3oc2=O)CC1,98.3,99.6,105.9,-2.1
O=C(O)Cc1c(F)cccc1Cl,83.2,90.7,nt,-3.4
COc1ccc(-c2cc(C)no2)cc1S(=O)(=O)NC1CCN(Cc2ccccc2)CC1,nt,nt,106.4,-1.6
CCN(CC)C(=O)Cn1cc(SCC(=O)NC)c2ccccc21,86.7,77.2,101.9,-37.3
CCC1CN(C(=O)N2CCC(C(=O)NCCC3=CCCCC3)CC2)c2ccccc2O1 (stereo unspecified),120.4,95.1,105.2,-13.0
Cc1cc(F)c(F)cc1C(=O)N1CCN(C)CC1,108.2,102.2,106.6,-25.2
Cc1c(C(=O)N2CCOCC2)[nH]c2ccc(OCc3ccccc3)cc12,115.0,86.4,nt,-6.6
CCOC(=O)C1=C(C)N=c2s/c(=C\c3ccc(OC)c(O)c3)c(=O)n2C1c1ccccc1OC(C)C (stereo unspecified),nt,nt,100.2,-0.5
O=C1NC(=O)N(C2CCCCC2)C(=O)/C1=C/c1ccc(C(=O)O)cc1,110.3,86.7,nt,-2.2
Cc1ccc(Cl)cc1N1CCN(C(=O)C2CCN(S(=O)(=O)c3cccs3)CC2)CC1,84.0,81.2,109.8,nt
Cc1ccc(N2C(=O)[C@@H]3CSC(c4ccc(Cl)cc4)N3C2=O)cc1 (stereo partly specified),111.8,89.6,100.8,-28.6
O=C(CN1C(=O)C2CCCCN2c2ccc(C(=O)N3CCCCC3)cc21)Nc1nccs1 (stereo unspecified),nt,nt,100.5,-43.4
CC1CCN(S(=O)(=O)c2ccc3nc(-c4cccnc4)cc(C(=O)NCC4CCCO4)c3c2)CC1 (stereo unspecified),90.4,81.5,101.5,nt
CCc1ccc2nc(N3CCN(C(=O)c4ccco4)CC3)sc2c1,111.9,84.0,96.4,nt
CC(O)CNC(=O)CC1(CC(=O)NCC(C)O)CCCC1 (stereo unspecified),71.2,91.1,nt,-9.0
Cc1ccc2c(Cl)c(C(=O)Nc3ccc(Br)cc3Br)sc2c1,nt,nt,102.3,-14.6
Cc1c(NC(=O)COCc2cc(-c3ccc4c(c3)OCO4)on2)c(=O)n(-c2ccccc2)n1C,nt,nt,101.8,5.1
COC(=O)c1c(C)[nH]c(C(=O)N2CCCC(C(=O)N3CCN(C4CCCCC4)CC3)C2)c1C (stereo unspecified),nt,nt,100.0,-6.2
Fc1ccc(Nc2c(-c3c[nH]c4ccccc34)nc3ccccn23)cc1,97.8,84.9,102.2,-4.1
Cc1nnc(Nc2ccc(F)cc2)[nH]c1=O,nt,nt,103.2,-15.4

# A draw from above in order of length of the SMILES, high to low:
SMILES,Sa growth 42C,Sa growth 42C second temp,GIV Gai3 FP,HCMV NEC inh
Cc1nn(CC(=O)N(C)Cc2ccccc2)c(=O)c2nn(-c3ccccc3)c(C)c12,91.0,90.9,103.7,-28.5
CCOC(=O)C1CCN(C(=O)c2cc3ccccc3oc2=O)CC1,98.3,99.6,105.9,-2.1
Cc1ccc2c(c1)N(C(=O)Nc1ccccc1C)CC(C)O2 (stereo unspecified),95.2,88.6,103.1,-22.5
CC1=CC(C)C(C[N+]2(C)CCCCC2)C(C)C1 (stereo unspecified),84.6,94.9,nt,3.2
Cc1nnc(Nc2ccc(F)cc2)[nH]c1=O,nt,nt,103.2,-15.4

# Next structures:
SMILES,Sa growth 42C,Sa growth 42C second temp,GIV Gai3 FP,HCMV NEC inh
O=c1oc2c(O)c(O)ccc2c2c1CCCC2,nt,nt,100.5,-61.9
COc1ccc(C(=O)N2CCC(C(=O)Nc3ccc(Cl)cc3)CC2)cc1,100.4,100.7,108.5,-3.7
c1ccc(CN2CCN(c3ncnc4sc5c(c34)CCCCC5)CC2)cc1,80.0,93.3,nt,-2.4
O=C(OCc1csc(-c2ccccc2)n1)c1ccc(S(=O)(=O)N2CCOCC2)cc1,92.0,95.1,nt,-4.4
Clc1nc(NCc2ccco2)nc(N2CCC(Cc3ccccc3)CC2)n1,nt,nt,95.7,4.5
Cc1ccc(-c2noc(-c3ccccc3OCC(=O)Nc3nccs3)n2)cc1,nt,nt,104.9,-6.1
COc1ccc(S(=O)(=O)N2Cc3ccccc3CC2C(=O)Nc2cc(Cl)ccc2Cl)cc1 (stereo unspecified),117.1,102.0,103.7,-1.0
O=C(NCn1cnccc1=O)c1ccccc1,112.3,106.2,nt,10.2
O=C(NCc1cccnc1)c1nn2c(C(F)(F)F)cc(-c3cccs3)nc2c1Br,nt,nt,91.3,-32.0
CCOC(=O)C1=C(C)NC(C)=C(C(=O)OCC)C1C(=O)OCn1nnc2ccccc2c1=O,75.0,82.6,nt,-28.9
Cn1cc(-c2cc3n(n2)CCC(=O)N3CCCC(=O)Nc2ccc(F)cc2F)c2ccccc21,81.6,86.1,104.5,nt
CNS(=O)(=O)c1cn(CC(=O)N2CCCC2)cc1S(=O)(=O)NC,104.3,97.2,104.8,-4.9
CCC(C)c1ccc(C(=O)COc2ccc(-c3nnco3)cc2)cc1 (stereo unspecified),71.5,83.3,nt,-28.4
Cc1ccc(OCCn2cc(Br)c(=O)[nH]c2=O)cc1,115.5,81.5,97.3,-4.8
O=C(Nc1ccc(-c2nc3cc(NC(=O)c4ccccc4Cl)ccc3o2)cc1)c1ccccc1Cl,98.1,91.4,105.1,nt
COc1ccc(Nc2cc(C(=O)NCCCN3CCN(c4ccccc4F)CC3)c3ccccc3n2)c(OC)c1,108.5,72.6,99.4,-19.1
COc1ccc(NC(=O)Nc2cc(F)cc(F)c2)cc1OC1CCCC1,90.8,90.7,109.7,-12.2
O=C(O)C1CC2CC(O)C1C2 (stereo unspecified),100.2,84.5,97.4,-10.7
Cc1ccc(Cn2c(=O)n(CC3CCC(C(=O)N4CCOCC4)CC3)c(=O)c3sccc32)cc1 (stereo unspecified),84.2,88.2,98.4,nt
CCN=c1scc(CC(=O)OCC)n1-c1c(C)cc(C)cc1C,101.2,75.8,nt,-18.6
CO[C@]12C[C@@H](COC(=O)c3cncc(Br)c3)CN(C)[C@@H]1Cc1cn(C)c3cccc2c13,91.5&98.0,89.3&83.8,101.5,-5.9&-45.3&-19.8
CCOc1ccc(NC(=O)c2cc(S(=O)(=O)N3CCN(c4ccccc4F)CC3)ccc2F)cc1,123.7,84.8,98.2,nt
Cc1ccc(NC(=O)c2ccc(NC3=NC4CS(=O)(=O)CC4S3)cc2)cc1F (stereo unspecified),97.9,87.0,104.9,7.6
CCOC(=O)C(C)Sc1nc2c([nH]c3ccccc32)c(=O)n1C (stereo unspecified),105.5,92.0,103.2,-4.7
Cc1cc(-n2ccnc(NCc3ccc4c(c3)OCO4)c2=O)ccc1Br,nt,nt,97.6,-0.9

# Record cards (already shown). Screens in order: Sa growth 42C	Sa growth 42C second temp	GIV Gai3 FP	HCMV NEC inh
# CCOC(=O)C(C)Sc1nc2c([nH]c3ccccc32)c(=O)n1C (stereo unspecified) in the list: 105.5	92.0	103.2	-4.7
# O=C(NCn1cnccc1=O)c1ccccc1 in the list: 112.3	106.2	nt	10.2

# More structures:
SMILES,Sa growth 42C,Sa growth 42C second temp,GIV Gai3 FP,HCMV NEC inh
CC1CCCCC1NC(=O)C(Cc1ccccc1)NS(=O)(=O)c1ccc2c(c1)oc(=O)n2C (stereo unspecified),95.7,87.8,102.6,-2.7
Cc1ccc(Sc2ccccc2C(=O)O)c(S(N)(=O)=O)c1,106.1,92.2,95.7,-88.1
Cc1c(Cl)cccc1-c1ccc(C(=O)Nc2ccc3oc(-c4cccnc4)nc3c2)o1,114.8,81.5,108.5,-52.7
COC(=O)c1c(C)[nH]c(C(=O)C(C)Sc2nnc(N)s2)c1C (stereo unspecified),90.5,81.0,nt,-18.1
NNC(=O)CC1CCS(=O)(=O)C1 (stereo unspecified),87.3,84.2,nt,-6.1
CCOC(=O)C1=C(N)OC2=C(C(=O)CCC2)C1c1ccc([N+](=O)[O-])cc1 (stereo unspecified),nt,nt,104.9,-24.6
CC1C(c2ccccc2)=[N+]([O-])C(C)(C)N1O (stereo unspecified),97.6,88.5,104.2,nt
O=C(NCCn1c(-c2ccccc2)nc2cccnc21)c1ccc(Cl)cc1,nt,nt,109.8,-16.8
COCCN(Cc1cccs1)Cc1cc(=O)oc2ccc(OC)cc12,101.5,75.9,103.6,nt
O=C(O)Cc1n[nH]c(=O)c2ccccc12,95.2&94.4,81.8&98.9,95.5&104.0,-26.5&6.7
CC(C)(C)N=Cc1cc(-c2ccccc2)sc1S,11.8,47.0,111.2,nt
CS(=O)(=N/C=C(\C#N)S(=O)(=O)c1ccc(C(F)(F)F)cn1)c1ccsc1 (stereo unspecified),98.3,82.7,94.7,-22.7
Cc1cc(C)cc(-n2c(SCC(=O)N3CCC(C)CC3)nc3c([nH]c4ccccc43)c2=O)c1,88.7,89.5,102.5,nt
CC(C)CCn1c(=O)c2cccnc2n(CC(=O)Nc2ccccc2F)c1=O,96.2,89.0,101.2,-4.5
CCOc1cc2c(cc1OCC)C1C(C(=O)Nc3ccc4c(c3)OCO4)c3ccccc3C(=O)N1CC2 (stereo unspecified),92.5,84.2,98.5,-17.6
Cc1cccc(N(C)C(=O)C2CCC(CNS(=O)(=O)c3cccc4nsnc34)CC2)c1 (stereo unspecified),102.5,87.6,100.8,-111.2
